# MLL AF4-AF9 inh – blocks AF4 peptide binding to human AF9. P42568. AlphaScreen, biotin-AF4 peptide binding to FLAG-AF9. inhibition, % at 10 µM. 350,000 compounds, 0.47% hits. AID 651704;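 active means every replicate reaching a set inhibition limit, whatever the replicate mean, cut at about 25% in these data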;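 further: 0% = plate neutral control median and 100% = total signal loss; the record names both 10 and 1 µM as test concentration; the first replicate is given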
# Target sequence (P42568 whole entry, looked up): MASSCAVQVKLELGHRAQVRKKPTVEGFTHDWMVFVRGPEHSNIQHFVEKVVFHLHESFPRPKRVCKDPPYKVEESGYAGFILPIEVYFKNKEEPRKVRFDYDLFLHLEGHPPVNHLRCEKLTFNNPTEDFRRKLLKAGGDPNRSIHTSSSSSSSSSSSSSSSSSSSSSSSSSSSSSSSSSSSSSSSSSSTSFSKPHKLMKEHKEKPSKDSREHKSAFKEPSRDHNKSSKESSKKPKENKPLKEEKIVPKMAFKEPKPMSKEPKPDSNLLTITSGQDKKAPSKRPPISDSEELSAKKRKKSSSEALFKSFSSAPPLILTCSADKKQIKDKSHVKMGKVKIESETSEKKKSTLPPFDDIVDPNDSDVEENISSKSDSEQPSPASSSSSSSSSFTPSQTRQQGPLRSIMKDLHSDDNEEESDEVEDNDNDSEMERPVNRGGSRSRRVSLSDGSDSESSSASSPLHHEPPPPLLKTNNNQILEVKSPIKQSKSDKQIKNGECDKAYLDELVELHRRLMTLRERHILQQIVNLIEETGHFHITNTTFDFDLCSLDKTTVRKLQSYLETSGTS
# FGF22 binding – shifts melting point of recombinant human FGF22. Q9HCT0. recombinant FGF22 thermal shift, SYPRO orange fluorescence; percent of sucrose octasulfate shift, DMSO zero. calls only at 9.99 µM. 340,000 compounds, 1.5% hits;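 active means melting point raised past a set limit in the mean and every replicate; three in four hits are not shown here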
# Target sequence (Q9HCT0 whole entry, looked up): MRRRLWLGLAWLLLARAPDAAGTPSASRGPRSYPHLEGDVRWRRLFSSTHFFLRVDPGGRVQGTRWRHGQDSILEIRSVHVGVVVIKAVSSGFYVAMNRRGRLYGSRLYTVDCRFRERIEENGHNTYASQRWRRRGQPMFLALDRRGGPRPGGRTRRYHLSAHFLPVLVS
# rRNA inh HTS – inhibitors of bacterial rRNA selective over humanized ribosomes; 350,000 compounds, 1.6% hits; GFP signal change (wild-type ribosome), % (concentration not given with the values); E. coli WT GFP vs humanized-ribosome RFP mutants, fluorescence, 24 h; hits give low values; DMSO median 0, no signal -100;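 active means significant combined selectivity score with lowered wild-type GFP, culture density cut under 30%, mutant RFP and density less affected; inactive means any of these conditions unmet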; further: one replicate is shown; some compounds called inactive have numbers as strong as hits
# rRNA inh HTS OD600 – recorded beside rRNA inh HTS, whose call it bears; OD600 change, %; measured here: OD600 growth;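 optical density of the mix in the first replicate; 0 = DMSO median and -100 = no signal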
# rRNA inh HTS RFP – recorded beside rRNA inh HTS, whose call it bears; RFP signal change, %; measured here: RFP humanized mutant strains;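 first replicate; 0 = DMSO median and -100 = no signal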
# An asterisk follows results filed as active; i = inactive. Some of the compounds tested (hit frequency here may not be typical).
SMILES,MLL AF4-AF9 inh,FGF22 binding,rRNA inh HTS,rRNA inh HTS OD600,rRNA inh HTS RFP
O=C(C[C@@H]1C[C@@H]2c3cc(NC(=O)c4ccc5c(c4)OCO5)ccc3O[C@@H]2[C@@H](CO)O1)NCCc1ccccc1,-8.0,i,-8,-2,8.9
COc1ccc(NC(=O)Nc2ccc3c(c2)C(=O)N([C@@H](C)CO)C[C@@H](C)[C@@H](CN(C)S(=O)(=O)c2ccc(F)cc2)OCCCC[C@@H](C)O3)cc1,-1.3,i,1,4,0.8
COCC(=O)N(C)C[C@@H]1Oc2ncc(-c3ccc(F)cc3)cc2C(=O)N([C@H](C)CO)C[C@@H]1C,-0.5,i,0,-5,-4.7
CC=Cc1ccc2n(c1=O)C[C@@H]1[C@@H](CO)[C@H](C(=O)NCCOC)[C@H]2N1Cc1ccccc1 (mixture of isomers),1.0,i,-1,0,-1.5
CO[C@H]1CN(C)C(=O)c2ccc(NS(=O)(=O)c3ccccc3C)cc2OC[C@@H](C)N(S(C)(=O)=O)C[C@@H]1C,-5.3,i,2,2,-2.8
Cc1cccc(NC(=O)c2nc[nH]c2C(=O)NC[C@@H](C)O)c1,-4.4,i,-1,7,-4.6
Cc1ccc(S(=O)(=O)Nc2ccc3c(c2)C(=O)N([C@H](C)CO)C[C@H](C)[C@@H](CN(C)S(=O)(=O)c2c(C)noc2C)OCCCC[C@@H](C)O3)cc1,-0.8,i,3,6,0.8
COC(=O)[C@H]1[C@H](CO)[C@H]2Cn3c(ccc(-c4ccc(F)cc4)c3=O)[C@H]2N1C(=O)C1CCC1,-2.2,i,-4,-4,-1.6
O=C(c1cccc(F)c1)N1CC[C@@H]2[C@H]1c1cc(C#Cc3cccc(F)c3)ccc1N[C@@H]2CO,2.8,i,-7,-5,0.1
OC[C@H]1O[C@@H](c2nc(-c3ccc(C4OCCO4)cc3)no2)[C@H](O)[C@@H]1O,0.2,i,16,20,0.8
CO[C@H]1CN(C)C(=O)c2cc(NC(=O)C3CCCC3)ccc2OC[C@@H](C)NC[C@@H]1C,-1.4,i,2,2,-1.7
CC(C)OC(=O)N(C)C[C@H]1OCc2ccccc2-c2c(n(C)c3ccccc23)C(=O)N([C@H](C)CO)C[C@@H]1C,0.9,i,-3,-4,-1.8

# Next section, overlapping the part above by four compounds.
SMILES,MLL AF4-AF9 inh,FGF22 binding,rRNA inh HTS,rRNA inh HTS OD600,rRNA inh HTS RFP
O=C(c1cccc(F)c1)N1CC[C@@H]2[C@H]1c1cc(C#Cc3cccc(F)c3)ccc1N[C@@H]2CO,2.8,i,-7,-5,0.1
OC[C@H]1O[C@@H](c2nc(-c3ccc(C4OCCO4)cc3)no2)[C@H](O)[C@@H]1O,0.2,i,16,20,0.8
CO[C@H]1CN(C)C(=O)c2cc(NC(=O)C3CCCC3)ccc2OC[C@@H](C)NC[C@@H]1C,-1.4,i,2,2,-1.7
CC(C)OC(=O)N(C)C[C@H]1OCc2ccccc2-c2c(n(C)c3ccccc23)C(=O)N([C@H](C)CO)C[C@@H]1C,0.9,i,-3,-4,-1.8
CCCC#Cc1ccc2c(c1)O[C@H](CN(C)C(=O)NCCC)[C@@H](C)CN([C@@H](C)CO)S2(=O)=O,-0.8,i,-4,-13,2.9
C[C@@H]1CN([C@H](C)CO)C(=O)c2cc(NC(=O)CCC(F)(F)F)ccc2O[C@@H](C)CCCCO[C@@H]1CN(C)C(=O)c1ccccc1,-0.7,i,2,6,-2.8
Cc1ccccc1-c1cnc2c(c1)C(=O)N([C@H](C)CO)C[C@@H](C)[C@@H](CN(C)C(=O)c1ccccc1)O2,-4.8,i,2,8,-1.7
COc1ccc(S(=O)(=O)N2C[C@H](O)COC[C@@H]3O[C@H](CC(=O)NCc4ccc(Cl)c(Cl)c4)CC[C@H]32)cc1,3.2,i,-9,-15,0.3
C[C@H]1CN([C@@H](C)CO)C(=O)Cc2cc(NS(=O)(=O)c3cn(C)cn3)ccc2O[C@H]1CN(C)C(=O)Nc1ccc2c(c1)OCO2,-5.0,i,3,2,-1.1
C[C@H]1CN([C@@H](C)CO)C(=O)Cc2cc(NC(=O)Nc3ccc4c(c3)OCO4)ccc2O[C@@H]1CN(C)Cc1ccc(Cl)c(Cl)c1,1.5,i,2,-1,-0.3
O=C(Nc1ccc2c(c1)OCO2)C1Cc2c(-c3ccc(Cl)cc3)ccnc2O1 (centres undefined),0.9,i,-7,-19,-7.6
C[C@@H]1CCCCO[C@H](CN(C)C(=O)Nc2ccc3c(c2)OCO3)[C@H](C)CN([C@@H](C)CO)C(=O)c2cc(NS(=O)(=O)c3cccs3)ccc2O1,1.5,i,1,-5,0.1
C[C@H](CO)N1C[C@H](C)[C@H](CN(C)Cc2cncnc2)Oc2ncc(C#C[C@@H](C)O)cc2C1=O,-3.9,i,2,4,-4.1
C[C@H]1CN([C@@H](C)CO)C(=O)c2cccc(NC(=O)c3nc4ccccc4s3)c2O[C@@H]1CN(C)C(=O)Nc1ccc2c(c1)OCO2,4.4,i,0,2,-0.6
COc1ccc2c3c(n(C)c2c1)[C@@H](CO)N(C(=O)CC1CC1)CC31CN(C(=O)CC2CC2)C1,0.3,i,0,7,0.7
Cc1ccc(-c2cnc(C(O)c3ccc(Cl)cc3C)[nH]2)cc1 (centres undefined),-2.4,i,-55,-79,-19

# Random excerpt: 3 compounds from above
SMILES,MLL AF4-AF9 inh,FGF22 binding,rRNA inh HTS,rRNA inh HTS OD600,rRNA inh HTS RFP
O=C(Nc1ccc2c(c1)OCO2)C1Cc2c(-c3ccc(Cl)cc3)ccnc2O1 (centres undefined),0.9,i,-7,-19,-7.6
COc1ccc(NC(=O)Nc2ccc3c(c2)C(=O)N([C@@H](C)CO)C[C@@H](C)[C@@H](CN(C)S(=O)(=O)c2ccc(F)cc2)OCCCC[C@@H](C)O3)cc1,-1.3,i,1,4,0.8
C[C@H]1CN([C@@H](C)CO)C(=O)c2cccc(NC(=O)c3nc4ccccc4s3)c2O[C@@H]1CN(C)C(=O)Nc1ccc2c(c1)OCO2,4.4,i,0,2,-0.6

# Continuation:
SMILES,MLL AF4-AF9 inh,FGF22 binding,rRNA inh HTS,rRNA inh HTS OD600,rRNA inh HTS RFP
CC=Cc1cc2c(c(=O)o1)C(=O)C(O)C(C)O2 (centres undefined),-6.7,i,10,6,11
C[C@@H]1CN([C@H](C)CO)C(=O)c2cc(NC(=O)Nc3ccc(F)cc3)ccc2O[C@@H](C)CCCCO[C@H]1CN(C)S(=O)(=O)c1ccccc1,-0.9,i,3,8,-0.3
O=C(Nc1ccc2c(c1)OCCO2)c1[nH]c(C(F)(F)F)nc1-c1ccccc1,3.6,i,-29,-37,4.3
C[C@@H]1CCCCO[C@@H](CN(C)S(=O)(=O)c2ccccc2)[C@H](C)CN([C@H](C)CO)C(=O)c2cc(NC(=O)Nc3cccc4ccccc34)ccc2O1,-7.9,i,2,4,-1.3
C[C@@H]1CN([C@H](C)CO)C(=O)c2cc(C#CC(C)(C)O)cnc2O[C@H]1CN(C)C(=O)CN(C)C,1.1,i,3,0,-3.0
O=C(CN1CCOCC1)N1CCCCN2[C@H](CO)[C@@H](c3ccc(C#Cc4ccccc4F)cc3)[C@H]2C1,0.2,i,9,-7,9.6
C[C@H](CO)N1C[C@H](C)[C@H](CN(C)Cc2ccc(C(=O)O)cc2)Oc2ncc(C#CCN(C)C)cc2C1=O,-13,i,4,12,-1.0
CCCNC(=O)N1C[C@@H](O)COC[C@@H]2O[C@H](CC(=O)NCc3ccncn3)CC[C@H]21,-11,i,-5,-3,-4.7
Cc1ccc(S(=O)(=O)Nc2ccc3c(c2)C(=O)N([C@H](C)CO)C[C@H](C)[C@@H](CN(C)C(=O)Nc2cccc4ccccc24)OCCCC[C@H](C)O3)cc1,-1.3,i,1,8,-1.7
C[C@H](NC(=O)C[C@H]1CC[C@@H](NC(=O)c2cccnc2)[C@H](CO)O1)c1ccccc1,-0.6,i,3,2,-0.3
Oc1ccc(C=NNC(=S)Nc2cccnc2)nc1,-1.4,i,-9,-31,3.1
Cn1c(=O)c2cc(NC(=S)NC3CCCCC3)ccc2n1-c1ccccc1,-2.1,i,-2,-28,5.3

# Exported tab-delimited: entries from further up.
Molecule	MLL AF4-AF9 inh	FGF22 binding	rRNA inh HTS	rRNA inh HTS OD600	rRNA inh HTS RFP
C[C@@H]1CN([C@H](C)CO)C(=O)c2cc(C#CC(C)(C)O)cnc2O[C@H]1CN(C)C(=O)CN(C)C	1.1	i	3	0	-3.0
O=C(CN1CCOCC1)N1CCCCN2[C@H](CO)[C@@H](c3ccc(C#Cc4ccccc4F)cc3)[C@H]2C1	0.2	i	9	-7	9.6
C[C@H](CO)N1C[C@H](C)[C@H](CN(C)Cc2ccc(C(=O)O)cc2)Oc2ncc(C#CCN(C)C)cc2C1=O	-13	i	4	12	-1.0

# Screening results (PubChem)
